Assay outcomes: PubChem, several laboratories
A1 inh = inhibitors of the anti-apoptotic protein A1, read as caspase activation; 330,000 compounds, 0.066% hits; caspase activation, % (test concentration not listed); AID 2462; MEF A1-2A-BIM cells, Caspase-Glo 3/7 luminescence, 3 h; percent of clofoctol response, vehicle zero;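 active means over half of replicate activation scores above 10%, or exactly half above 10 with the replicate mean above 10; inconclusive means replicate mean below 10 yet half the replicates above 10; inactive means over half of replicates below 10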;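 further: wells of about 30 µL received 50 nL stock; many hits fall short of the cut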
Calb FLC = C. albicans growth modulation with fluconazole; growth inhibition, % (test concentration not listed); C. albicans CaCi-2 (fluconazole-resistant clinical isolate) + fluconazole, Alamar Blue growth, 48 h; 300,000 compounds, 0.57% hits; AID 1979;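 active means most replicates above 75%; inconclusive means exactly half above 75%; inactive means most below 75%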;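 further: all wells also contain fluconazole at 8 µg/ml as a sub-toxic cotreatment; 0% = median of DMSO wells and 100% = median of geldanamycin control wells; wells of about 8 µL received 7.5 nL stock; the first replicate is given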
UCH37 DUB inh = human UCH37 deubiquitinating enzyme inhibition; AID 588478; inhibition, % (test concentration not listed); purified proteasome/UCH37, Ub-AMC cleavage fluorescence; Q9Y5K5; 330,000 compounds, 0.33% hits;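 active means mean of two replicates above 20%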;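 further: 0% = compound-free wells with enzyme and 100% = wells lacking proteasome; stock transfer was 100 nL into about 20 µL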
Target sequence (Q9Y5K5 whole entry, looked up): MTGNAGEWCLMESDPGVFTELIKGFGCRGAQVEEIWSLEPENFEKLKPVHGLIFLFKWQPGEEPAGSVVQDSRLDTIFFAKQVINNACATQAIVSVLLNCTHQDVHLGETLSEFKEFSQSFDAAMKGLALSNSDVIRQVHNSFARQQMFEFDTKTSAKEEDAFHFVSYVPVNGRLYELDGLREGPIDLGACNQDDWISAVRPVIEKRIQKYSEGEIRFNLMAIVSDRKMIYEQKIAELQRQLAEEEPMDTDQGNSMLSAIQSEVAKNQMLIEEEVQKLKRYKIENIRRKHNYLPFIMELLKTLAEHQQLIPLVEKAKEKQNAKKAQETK
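Assay system: Proteasome-bound UCH37. Buffer or medium: pH 7.4 Tris-HCl (50 mM) with ovalbumin, ATP-MgCl2, DTT. Incubation: 30 min preincubation with enzyme, 25 min cleavage at room temperature. Measured by: fluorescence, ex 355 nm, em 460 nm. Read-out basis: percent inhibition. Control set: wells without proteasome as full block, compound-free enzyme plus substrate as uninhibited.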
LANA-H2B inh = blocks KSHV LANA binding to histone H2A/H2B; Q9QR71; inhibition, % (concentration not given with the values); cell-free LANA-H2A/H2B peptide, fluorescence polarization; 320,000 compounds, 0.6% hits; AID 2629; in the data active means inhibition mostly above about 10%, no sharp cut-off; inactive means mostly below about 6.7%;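 further: stock transfer was 7.5 nL into about 10 µL; 0% = median of vehicle wells and 100% = median of positive control wells; one replicate is shown; the record names a cut of 25% in any replicate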
Beta cell apopt = blocks beta cell apoptosis. AID 435005. 300,000 compounds, 0.8% hits. INS-1E cytokine-induced death, ATP luminescence, 48 h; percent of positive-control rescue, neutral wells zero. protection from apoptosis, % (test concentration not listed);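 active means all replicates at 75% or more, or half of them and the mean; inconclusive means half reach 75% but not the mean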;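 further: 0% = cytokine-treated negative control wells and 100% = positive control rescue; higher means more ATP so stronger rescue from cytokine killing; wells of about 40 µL received 100 nL stock; the first replicate is given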
T cruzi repl = T. cruzi replication inhibition. T. cruzi beta-gal in NIH3T3, luminescence, 90 h. AID 1885. inhibition, % (concentration not given with the values). 300,000 compounds, 1.4% hits;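 active means mean inhibition across valid replicates above about 55%, limit read from the data; inconclusive means mean below that limit but half or more replicates reach it; inactive means mean below it, under half of replicates reach it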;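 further: signal also drops with host cell toxicity which is not excluded here; 0% = plate median of DMSO wells and 100% = zero luminescence signal; higher percent means less beta-gal luminescence so fewer parasites; stock transfer was 50 nL into about 50 µL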
Beta2AR agonist = activates human beta-2 adrenergic receptor causing internalization. 340,000 compounds, 0.43% hits. P07550. Am2.2-beta2AR cells, FAP receptor internalization, flow cytometry; reference of the scale not given here. response, % (test concentration not listed);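 active means response above a set limit, near 3 SD of response in nonfluorescent compounds, cut at about 42% in these data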;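 further: stock transfer was 100 nL into about 11 µL; a reference agonist was the positive control; negative values mostly stem from fluorescent compounds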
Target sequence (P07550 whole entry, looked up): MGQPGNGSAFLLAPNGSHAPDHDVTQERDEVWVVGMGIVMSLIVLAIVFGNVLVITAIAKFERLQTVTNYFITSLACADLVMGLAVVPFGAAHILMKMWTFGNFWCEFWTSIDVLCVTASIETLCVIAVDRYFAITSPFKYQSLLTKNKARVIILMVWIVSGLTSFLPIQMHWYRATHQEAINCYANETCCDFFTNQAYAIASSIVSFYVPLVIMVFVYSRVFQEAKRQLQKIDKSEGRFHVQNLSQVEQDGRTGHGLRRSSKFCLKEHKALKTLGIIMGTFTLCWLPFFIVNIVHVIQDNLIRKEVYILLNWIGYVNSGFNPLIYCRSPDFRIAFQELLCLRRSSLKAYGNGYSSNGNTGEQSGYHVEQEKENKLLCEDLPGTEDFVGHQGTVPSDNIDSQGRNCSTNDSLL
RanGTP-Imp inh = disruptors of Ran-importin-beta complex formation – biochemical, FRET, CFP-Ran, YFP-importin-beta, homogeneous, primary screen; cell-free CFP-Ran/YFP-importin-beta FRET ratio; inhibition, % (no concentration beside the values); 300,000 compounds, 1.1% hits; AID 2216;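 active means most replicates above 15%; inconclusive means exactly half above 15%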;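 further: 0% = DMSO wells and 100% = Ran loaded with GDP instead of GTP; wells of about 40 µL received 100 nL stock; the first replicate is given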
* hit, by the source's call; ? = inconclusive; . = not tested or not shown; & = joins results of further samples. The order is random. Share with any hit: about 4.3%.

SMILES | A1 inh | Calb FLC | UCH37 DUB inh | LANA-H2B inh | Beta cell apopt | T cruzi repl | Beta2AR agonist | RanGTP-Imp inh
O=CNCc1nc2ccccc2n1CCc1ccccc1 | -0.6 | -5.3 | 2.5 | -3.0 | 0.7 | -13.1 | -1.2 | 5.0
Cc1c(C(=O)OCC(=O)Nc2c(C)n(C)n(-c3ccccc3)c2=O)cccc1[N+](=O)[O-] | 1.9 | -22.9 | 1.4 | -0.6 | -2.3 | -11.0 | 0.8 | 11.7
O=C(CCC(=O)OCCCC(F)(F)C(F)(F)F)Nc1ccccc1 | 1.5 | -5.7 | -0.4 | 2.3 | -4.6 | -7.9 | 9.5 | 2.7
O=C(O)COc1ccc(/C=C/c2nc3ccc([N+](=O)[O-])cc3s2)cc1 | 0.1 | 0.0 | 16.3 | -0.2 | -3.8 | 56.5* | -2.8 | -6.7
CCC(C)[C@H](NC(=O)NCc1ccccc1Cl)C(=O)O (stereo not given in full) | 0.0 | 1.8 | 1.9 | -6.6 | 2.0 | -16.4 | 5.5 | -2.0
COc1ccc(-c2nc(-c3ccccc3)nc(Cl)c2C#N)cc1 | -0.3 | -9.3 | -69.9 | 5.0 | 4.9 | -30.4 | 22.4 | -0.2
Cc1ccc(C(=O)NN2C(=O)C3C4C=CC(C4)[C@@H]3C2=O)cc1 (stereo not given in full) | 0.5 | -11.7 | 5.1 | -0.8 | -3.2 | -1.6 | 1.3 | -1.3
Cc1cccc(Cn2c(O)c(N=NC(=S)Nc3ccccc3F)c3ccccc32)c1 | -0.3 | 113.8* | 12.8 | -9.1 | 40.5 | 60.2* | 2.4 | -7.1
Cc1ccc(S(=O)(=O)N2CCN(C(=O)COC(=O)c3cccc(Cl)c3)CC2)c(C)c1 | 1.8 | . | 1.5 | -16.5 | -3.2 | . | -2.4 | .
COc1ccc(C(CNC(=O)c2cccc(S(=O)(=O)Nc3ccc(C)cc3)c2)N2CCCCC2)cc1 (stereo not given) | -0.8 | 10.4 | 1.4 | -1.4 | 5.7 | 0.5 | 3.5 | .
CC[C@@H]1CC=C[C@H]2[C@H]1C(=O)N(Cc1ccccc1)[C@H]2c1cc(C)ccc1F | . | -12.4 | 1.5 | . | . | 34.3 | . | 1.3
COc1ccc(C(=O)Nc2cccc(NC(C)=O)c2)cc1OC | -1.8 | -5.4 | 4.3 | 0.1 | 4.2 | -23.9 | 3.4 | 0.8
Cn1c(C(=O)O)cc2cc(F)ccc21 | 1.3 | -8.3 | -2.4 | -3.2 | -1.2 | -7.9 | -1.9 | 1.3
COCC(=O)N1CCCC(C(=O)c2ccc(C(F)(F)F)cc2)C1 (stereo not given) | -0.1 | -7.0 | -0.3 | 0.4 | . | -4.1 | -2.2 | 0.8
CCOc1ccccc1NC(=O)Cc1c(F)cccc1Cl | 0.2 | -1.0 | 1.6 | 3.3 | -5.8 | -0.6 | 2.1 | 4.6
CC(O)CSc1nc2c(c(=O)n(C)c(=O)n2C)n1CCCc1ccccc1 (stereo not given) | 0.1 | -3.9 | 5.5 | 1.8 | 1.0 | 12.9 | -4.1 | 2.3
CCOC(=O)c1ccc(N2C(=O)CC(N3CCN(Cc4ccccc4)CC3)C2=O)cc1 (stereo not given) | 0.0 | -4.0 | 2.4 | 3.3 | -4.7 | -11.6 | -3.7 | 2.5
O=C(NCCCN1CCC(Cc2ccccc2)CC1)C1CCC(=O)N1C1CCCC1 (stereo not given) | -0.2 | -4.2 | 2.0 | -2.9 | . | 7.8 | -4.2 | 1.2
CC(=O)OC1COC(N2CCc3cc(Br)c([N+](=O)[O-])cc32)C(OC(C)=O)C1OC(C)=O (stereo not given) | 0.2 | -5.6 | 1.6 | 1.5 | -0.4 | -3.6 | 1.0 | -1.1
Oc1ccc(Cl)cc1Cc1cc(Cl)ccc1O | -0.4 | . | 4.3 | -4.9&-21.5 | 24.3 | -6.7 | 18.3 | -5.1
COc1cccc(N/C(SCc2ccccc2Cl)=C(/C#N)C(=O)NCc2cccs2)c1 | -0.2 | 4.4 | 8.1 | 8.8 | 4.7 | 25.2 | 8.4 | 5.6
O=C(NCc1cccs1)C(Cc1ccccc1)n1cccc1 (stereo not given) | 0.4 | -5.2 | -0.9 | 2.2 | -1.5 | 3.9 | 13.6 | 0.3
CC1=CS(=O)(=O)CC1Sc1nc2ccccc2[nH]1 (stereo not given) | 0.3 | 2.5 | 1.7 | -4.1 | 2.8 | -17.6 | -9.2 | 2.9
COc1ccc(CCNC(=O)CCCn2c(=O)c3cccn3c3cccnc32)c(OC)c1 | -1.7 | -7.7 | -4.6 | -5.6 | 4.0 | 1.0 | -9.3 | -0.3
O=C(N/N=C/c1cccc(O)c1)c1csc2ccccc12 | 0.7 | 30.8 | . | -3.2 | 6.6 | -11.2 | 10.6 | 0.9
Clc1ccc2nc(CSc3nc4ccccc4o3)cn2c1 | -0.7 | 14.7 | -2.8 | -3.4 | -1.2 | -11.0 | -21.6 | 6.3
COc1ccc(N2CCN(C(=O)COC(=O)CNC(=O)c3cccc(OC(F)F)c3)CC2)cc1 | -0.2 | . | 5.8 | 0.1 | 3.5 | . | 3.5 | .
COC(=O)Nc1ccc(SCC(=O)c2ccccc2)cc1 | -1.4 | -2.9 | 5.7 | 4.5 | 1.8 | -8.2 | 0.1 | 2.1
Cc1cc(OCC(=O)N2CCCCCC2)ccc1[N+](=O)[O-] | -0.6 | 0.0 | 7.2 | 3.7 | -4.5 | 8.4 | -6.5 | -0.6
Cc1nn(-c2ccccc2)c2nc(N)c(C#N)c(-c3ccc(F)cc3)c12 | -0.1 | 40.6 | -101.3 | -2.6 | 5.8 | 36.9 | 5.6 | 1.7
CCOc1cc(CNCCO)cc(Br)c1OCc1ccccc1 | 0.3 | -55.6 | -0.6 | -1.0 | 26.9 | 21.9 | 27.2 | 1.5
CCOC(=O)C1CCN(CCC(=O)Nc2cccc(Cl)c2C)CC1 | 0.6 | 7.7 | -0.7 | 0.8 | 0.1 | -4.6 | 5.3 | 1.8
Cc1ccc(NC(=O)c2cc(-c3ccccc3O)n[nH]2)cc1C | -1.2 | -6.5 | -0.6 | 0.1 | -2.7 | -8.1 | 0.8 | -0.5
N#Cc1ccc(C(=O)NC(=S)NC2CCCCC2)cc1 | 1.0 | . | 1.0 | 0.1 | -2.4 | . | 14.0 | .
COc1ccc(C)cc1NS(=O)(=O)c1ccc2c(c1)NC(=O)C(C)S2 (stereo not given) | -0.9 | 30.7 | 5.3 | 1.6 | 3.6 | 12.0 | 2.0 | -1.7
CC1=Nn2c(nnc2-c2cc(-c3ccccc3)n[nH]2)SC1 | -0.4 | -7.0 | 3.9 | -1.1 | 4.3 | -5.8 | -7.8 | -1.8
COc1ccc(C(CNC(=O)c2cccc(NS(=O)(=O)c3ccccc3)c2)N(C)C)cc1 (stereo not given) | 0.2 | -3.9 | 1.7 | 5.2 | -12.1 | 0.9 | -5.4 | 5.0
O=C(NC(Cc1c[nH]c2ccccc12)C(=O)Nc1ccc(F)c([N+](=O)[O-])c1)c1cccs1 (stereo not given) | 0.5 | -17.5 | 7.1 | 2.4 | 2.8 | 4.9 | 2.9 | -1.3
COc1ccc(NC(=O)CSc2nnc(CNc3ccc(F)cc3)o2)c(OC)c1 | 0.0 | 22.7 | -1.3 | 5.8 | 3.7 | -8.4 | -1.2 | 1.6
COc1ccc(NC(=O)COC(=O)c2c(F)cccc2Cl)cc1OC | -0.7 | 31.4 | 6.1 | -6.0 | 5.2 | -1.8 | . | 2.6
COc1ccc(C(=O)OCC(=O)NCC2CCCO2)cc1[N+](=O)[O-] (stereo not given) | -0.5 | -10.2 | 2.4 | -0.2 | -1.5 | -14.0 | 4.0 | 2.2
O=C(NN=C1CCCCCC1)c1ccc(Br)o1 | 0.5 | -27.3 | -1.2 | -1.7 | . | 3.1 | -6.5 | 4.6
COc1cc(C2C(C(C)=O)=C(C)Nc3ncnn32)ccc1O (stereo not given) | 0.1 | 14.2 | -2.1 | -2.1 | -1.7 | -4.8 | 0.1 | 1.7
Cc1c(C(=O)NCCCN2CCOCC2)sc2nc(-c3ccc(F)cc3)cn12 | 0.7 | -12.9 | 7.7 | -2.5 | -1.2 | -11.7 | -0.2 | 0.9
CN(C)/C(=N\S(=O)(=O)c1ccccc1)c1ccc([N+](=O)[O-])cc1 | -0.2 | 6.2 | . | 2.4 | -0.4 | -18.4 | 7.8 | 0.9
N#Cc1ccccc1S(=O)(=O)N1CCN(C(=O)c2cc(-c3ccccc3)nn2-c2ccccc2)CC1 | -0.7 | -6.0 | 2.0 | 0.4 | 0.1 | 14.6 | 27.3 | -1.3
Cc1sc(NC(=O)Nc2ccccc2)c(C(N)=O)c1C | -1.2 | 3.7 | -1.0 | 2.3 | -8.9 | -9.1 | 0.1 | 10.8
COc1cc(CCC(=O)OCC(=O)Nc2ccc(C)cc2Cl)cc(OC)c1OC | -0.6 | -2.3 | 1.8 | -2.1 | . | -5.1 | -1.9 | 1.4
CCCc1cc(N2CCOCC2)n2ncc(-c3ccccc3)c2n1 | 0.9 | 17.0 | -21.6 | -2.4 | -2.2 | 14.1 | -2.0 | 5.0
O=C(NCCCN1CCOCC1)c1ccc(Sc2ccc(F)cc2)c([N+](=O)[O-])c1 | 0.9 | 0.1 | 6.6 | 1.0 | 2.8 | 61.4* | -12.7 | -2.9
Next section
SMILES | A1 inh | Calb FLC | UCH37 DUB inh | LANA-H2B inh | Beta cell apopt | T cruzi repl | Beta2AR agonist | RanGTP-Imp inh
Cc1cccc(NC(=O)c2nc[nH]c2C(=O)N[C@@H](C)c2ccccc2)c1 | 0.0 | . | . | -1.9 | 9.3 | . | -0.1 | .
O=C(Oc1c(CN2CCOCC2)cc(Cl)c2cccnc12)c1ccc(F)cc1 | 1.3 | 95.9* | 3.4 | -1.2 | 83.4* | 56.2* | -12.4 | ?
CCOC(=O)C1CCN(C(=O)COC(=O)Cc2ccc(Cl)cc2)CC1 | 0.6 | -10.4 | 2.7 | 0.9 | -3.5 | -3.7 | -2.7 | 0.4
CCS(=O)(=O)Nc1cccc(C2=NN(S(C)(=O)=O)C(c3ccccc3)C2)c1 (stereo not given) | 0.0 | ? | 2.3 | 1.2 | 2.5 | 9.6 | -8.4 | 2.2
CCN(CC)S(=O)(=O)c1ccc(Br)c(OC)c1 | -0.7 | -7.5 | 5.4 | -0.7 | . | -5.5 | -1.0 | 0.1
O=C(CSc1nnc(-c2ccncc2)n1-c1ccccc1)NC1CC1 | -2.2 | -4.2 | 1.1 | -4.4 | -3.7 | 1.0 | -12.6 | -1.2
COc1cc(C(=O)N2CCN(c3cc(Cl)ccc3Cl)CC2)cc(OC)c1OC | 0.9 | -2.2 | 0.6 | -6.7 | 34.6 | 0.3 | 28.0 | 0.3
CC(C)/C=C1\CC/C(=C\c2ccc(N(C)C)cc2)C1=O | 0.2 | 1.8 | 5.2 | . | 1.8 | 3.8 | -12.9 | -68.9
